High-throughput results (PubChem BioAssay)
HPGD inh – qHTS Assay for Inhibitors of HPGD (15-Hydroxyprostaglandin Dehydrogenase). purified HPGD, NADH fluorescence kinetic, PGE2 substrate. Potency, µM, for the others: top-dose activity change, negative = inhibition, actives largely listed as inhibitors. 150,000 compounds, 4.3% hits. AID 894, 2007; active = well fitted inhibition curve with a large enough effect (not every such curve was filed as active); inconclusive = small, poorly fitted or top-dose-only effect, or another doubt; inactive = no such curve, though single readings can be large or run the other way;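 further: top concentration of the series not given in the record; plate controls included wells without enzyme; inactives centre near -10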
Target sequence (P15428 whole entry, looked up): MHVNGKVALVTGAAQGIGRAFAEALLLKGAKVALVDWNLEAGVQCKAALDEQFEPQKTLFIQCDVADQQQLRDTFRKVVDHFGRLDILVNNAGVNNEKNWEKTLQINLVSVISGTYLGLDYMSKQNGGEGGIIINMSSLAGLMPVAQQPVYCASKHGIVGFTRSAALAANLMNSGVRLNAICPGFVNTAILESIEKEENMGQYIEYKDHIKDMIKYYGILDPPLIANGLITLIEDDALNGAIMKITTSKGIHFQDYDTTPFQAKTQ
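NADH formation kinetics: reaction with 30 uM PGE2 and 1 mM NAD+ (final), 20 nM enzyme, Tris-HCl pH 8 with Tween 20, after 15 min compound preincubation at room temperature. Fluorescence change, last versus first of five reads.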
* marks the source's active call; other numbers are inactive results; ? = inconclusive. On the % scale 0 is the no-effect control and ±100 the full control effect; potency means the concentration at half of the fitted maximal effect. An excerpt (hit frequency here may not be typical).

nr	HPGD inh	Molecule
1	-5%	Cc1ccc(S(=O)(=O)N(C)CCCC(=O)N2CCOCC2)cc1
2	-29%	Cc1cc(C)n(Cc2ccc(NC(=O)c3ccc(COc4ccccc4Br)cc3)cc2)n1
3	-28%	CCCn1c(-c2ccc(F)cc2)nc2c(NCCN(C(C)C)C(C)C)nc(C)nc21
4	-3%	CCOc1ccc(NC(=O)CSc2nnc(C(C)C)n2CC)cc1
5	-24%	O=C(Nc1ccc(OC(F)F)cc1)Nc1cccc(C(F)(F)F)c1
6	-9%	CCOC(=O)Cc1[nH]nc2c1C(c1cccc(OC)c1OC)C(C#N)=C(N)O2 (stereo not given)
7	?	Cc1cn2c(nc(=O)c3cccnc32)s1
8	28µM*	COc1ccc(CCNC(=O)c2cc(-c3ccccc3O)n[nH]2)cc1OC
9	-25%	CC(C)(C)c1ccc(NC(=O)COc2ccc(-n3ccnc3)cc2)cc1
10	7%	CCC(C)(C(=O)NC1CCCCC1)N(Cc1cccs1)C(=O)Cc1cccs1 (stereo not given)
11	-9%	O=C(Cc1ccc(F)cc1)N/N=C/c1ccccn1
12	-5%	O=C(Nc1ccccn1)C1(c2cccs2)CCOCC1
13	-6%	COC(=O)c1cc(=O)n2c(-c3ccccc3)csc2n1
14	14µM*	COc1ccc(C(=O)O/N=C(\N)c2ccccc2)c(OC)c1
15	-16%	O=C(Cc1cccc2ccccc12)Nc1ccc(OC(F)F)c(Cl)c1
16	-7%	COc1cc(CN(C(=O)c2ccco2)c2ccc(C)cc2)ccc1O
17	?	COc1cc(OC)c2c(-c3cccc(-c4ccc(NC(C)=O)cc4)c3)cc(=O)oc2c1
18	-7%	CCC1CCCCN1Cc1cc(OC)c(O)c([N+](=O)[O-])c1 (stereo not given)
19	-25%	O=c1[nH]c(=O)n(Cc2ccccc2)c2nc(-c3ccc(Oc4ccc(F)cc4)c([N+](=O)[O-])c3)n(CCO)c12
20	-7%	CC(C)c1c(O)nc(SCCC(=O)O)[nH]c1=O
21	-19%	O=Cc1c(Sc2ccccn2)nc2ccccn2c1=O
22	-19%	CCc1ccc(NC(=O)c2ccc(OC)c([N+](=O)[O-])c2)cc1
23	2.5µM*	CCCCCn1c(SCC#N)nc2cc(C(=O)NCC3CCCO3)ccc2c1=O (stereo not given)
24	-19%	Cc1cc(Cl)c(OCCCNCc2ccccc2)c(Br)c1
25	-28%	Cc1ccccc1NC1=NS(=O)(=O)c2ccccc21
26	?	O=c1oc2c(CN3CCOCC3)c(O)ccc2c2c1CCCC2
27	-5%	CCCCC(=O)N(C)C
28	3%	Cc1cccc(C(=O)Nc2nnc(SCC(=O)Nc3ccc4c(c3)oc3ccccc34)s2)c1
29	-27%	Cc1ccc(S(=O)(=O)/N=C(\N)Nc2nc(C)c3cc(C)c(C)cc3n2)cc1
30	-7%	Cc1ccc(NC(CC(=O)c2ccccc2)c2ccc(F)cc2)cc1 (stereo not given)
31	1%	COc1cc(CNC2CCC(C)C2)cc(OC)c1 (stereo not given)
32	-7%	CCN(CC)C(=O)CSc1nnc(-c2ccncc2)n1N
33	-13%	CC1CN(C)C(c2ccccc2)C(C)C12NC(=O)NC2=O (stereo not given)
34	-4%	O=C(CN1C(=O)c2ccccc2C1=O)Nc1cccc([N+](=O)[O-])c1
35	-1%	O=C(O)C1C2CCC(C2)C1C(=O)Nc1nc2ccccc2s1 (stereo not given)
36	-13%	CC1(C)Cc2c(c(N3CCOCC3)nc3snc(Br)c23)CO1
37	2%	O=C(CCS(=O)(=O)c1ccccc1)NC12CC3CC(CC(C3)C1)C2
38	-6%	O=C(Cc1cccs1)Nc1ccccn1
39	28µM*	Cc1nnc(SCC(=O)NC2CCCC2)s1
40	-4%	Cc1c(NC(=O)Cn2nc(C(F)(F)F)c3c2CCCC3)c(=O)n(-c2ccccc2)n1C
41	?	O=C(NC1CC1)c1cc2c(s1)-c1ccccc1OC2
42	-2%	C#CCOCCOCCOCCNc1nc(N2CCN(C(=O)Cn3cc(CCCN=C(N)N)nn3)CC2)nc(N2CCN(C(=O)[C@H]([C@@H](C)CC)n3cc(CCCN=C(N)N)nn3)CC2)n1
43	?	O=C(NCc1ccc2c(c1)OCO2)c1cc2ccccc2o1
44	2%	O=C(Nc1nccs1)C1C2CC3OC(=O)C1C3C2 (stereo not given)
45	-21%	Oc1[nH]c2ccc(Br)cc2c1N=Nc1ccc(C(F)(F)F)cn1
46	-18%	Cc1cccc(-c2nnc(NC(=O)c3ccc(Cl)cc3)o2)c1
47	-7%	COc1ccc(Oc2ncc3nc(-c4ccc(Cl)cc4)c(=O)n(C)c3n2)cc1
48	-13%	CCN(CC)S(=O)(=O)c1ccc(C)c(C(=O)Oc2cccc(-c3cnc4ccccc4n3)c2)c1
49	-14%	Cc1ccc(CN2C(=O)NC(Cc3c[nH]c4ccccc34)C2=O)cc1 (stereo not given)
50	-11%	COc1cccc(C2=NOC(C(=O)NCCN3CCOCC3)C2)c1 (stereo not given)
51	-20%	O=C(OCC(=O)c1ccco1)c1ccc2ncsc2c1
52	-7%	CC(C)(C)Nc1nc(NCc2cccnc2)nc(N2CCOCC2)n1
53	-12%	COc1ccc2c(c1)C(=O)[C@@H](OC(=O)Nc1ccc(C)c(Br)c1)[C@H](c1ccc(OC)c(Br)c1)O2
54	-7%	C[C@H]1Cc2c(-c3ccccc3)nc3c(c2CO1)CN(S(=O)(=O)c1ccc(Cl)c2nonc12)CC3
55	-8%	O=C(N=C1c2ccccc2CN1c1ccc(F)c(Cl)c1)c1cccnc1Cl
56	-10%	O=c1c(C(c2c(O)nc3n(c2=O)CCS3)c2cccc3ccccc23)c(O)nc2n1CCS2
57	-14%	CCOC(=O)C1CCN(C(=O)c2ccc(N(C)S(C)(=O)=O)cc2)CC1
58	2%	CN1CCN(CCCN)CC1
59	-4%	O=C(Nc1ccc(Cl)c(C(F)(F)F)c1)c1ccco1
60	-9%	CCN1C(=O)N[C@@H](c2cccc(C(F)(F)F)c2)[C@H](C(=O)OC)[C@H]1C

(next part)
nr	HPGD inh	Molecule
61	-8%	COc1ccc(CCNC(=O)CSc2ccc(-c3ccccc3)nn2)cc1OC
62	-1%	COCc1nnc(N)s1
63	-1%	COCCCNC(=O)C1CC(=O)N(CCc2ccc(OC)c(OC)c2)C1 (stereo not given)
64	-10%	O=C1CC(/C=C/c2ccco2)=Nc2ccccc2N1
65	-5%	CCC(=O)NCC(c1cccs1)N1CCOCC1 (stereo not given)
66	-12%	COc1ccc(OC)c(S(=O)(=O)N2CCC(C(=O)NCCc3ccc(OC)c(OC)c3)CC2)c1
67	-1%	O=C(NCCc1nc2ccccc2[nH]1)c1ccco1
68	-14%	Cc1c(C(=O)NCCSCc2ccccc2Cl)cccc1[N+](=O)[O-]
69	-16%	Cc1oc(C(C)(C)C)cc1C(=O)Nc1cccc(/C=C/C(=O)O)c1
70	-5%	C=C(C)CNCCN
71	-2%	O=C(c1cc([N+](=O)[O-])ccc1N1CCOCC1)N1CCOCC1
72	-6%	Cc1cc(NS(=O)(=O)c2ccc(NC(=O)COc3ccccc3C(C)C)cc2)no1
73	-9%	O=C(Cn1nnc(-c2ccccc2-n2cnnn2)n1)N1CCCCC1
74	-1%	O=C(CN1CCc2ccccc2C1)N1CCN(S(=O)(=O)c2ccccc2)CC1
75	-1%	COc1cc(OC)cc(OCC(O)Cn2ccnc2)c1 (stereo not given)
76	-8%	Cc1ccsc1C(=O)OCC(=O)N1CC(=O)Nc2ccccc21
77	2.8µM*	CC(C)(C)c1ccc(S(=O)(=O)/C=C\C#N)cc1
78	-9%	Cc1ccc(-n2c(SCC(N)=O)nnc2-c2cccnc2)c(C)c1
79	2%	Cc1ccc(NC(=O)CN2CCC(NC(=O)Cc3ccccc3)CC2)c(C)c1
80	-21%	COc1cccc(-n2c(Cc3cc(=O)[nH]c(=O)[nH]3)nnc2SCC(=O)N2CCCCC2)c1

Entries above that bear a hit mark in HPGD inh.
nr	HPGD inh	Molecule
8	28µM*	COc1ccc(CCNC(=O)c2cc(-c3ccccc3O)n[nH]2)cc1OC
14	14µM*	COc1ccc(C(=O)O/N=C(\N)c2ccccc2)c(OC)c1
23	2.5µM*	CCCCCn1c(SCC#N)nc2cc(C(=O)NCC3CCCO3)ccc2c1=O (stereo not given)
39	28µM*	Cc1nnc(SCC(=O)NC2CCCC2)s1
77	2.8µM*	CC(C)(C)c1ccc(S(=O)(=O)/C=C\C#N)cc1

Continued:
nr	HPGD inh	Molecule
81	-12%	CCCCc1nn(-c2cc(Cl)ccc2OC)c2c1C(=O)CCC2
82	0%	Cc1ccccc1-n1c(C)n[nH]c1=S
83	-15%	COC(=O)c1ccc(NCCc2csc(-c3ccc(C)cc3)n2)c([N+](=O)[O-])c1
84	-13%	O=S(=O)(c1ccccc1)c1nc(-c2ccco2)oc1NCc1cccnc1
85	-13%	O=c1ccc(Oc2nc(N3CCOCC3)nc(N3CCOCC3)n2)nn1-c1ccccc1
86	-7%	O=C1CC2CS(=O)(=O)CC2N1c1ccc(Oc2ccccc2)cc1 (stereo not given)
87	-6%	CN(C)/C=C(\C#N)C(=O)Nc1ccc(F)cc1
88	-3%	CCOC(=O)C1=C(C)N=C2SC(C)C(=O)N2C1c1ccc(OCC)c(OCC)c1 (stereo not given)
89	?	Cc1cccc(Nc2nnc(SCC(=O)c3ccc(Br)s3)s2)c1C
90	-18%	O=C(CCCc1ccccc1)NC1CC1
91	-7%	COC(=O)c1ccc(NC(=S)NCCc2cccc(C)c2)cc1
92	?	Cc1ccccc1NC(=O)c1ccc(C)c(S(=O)(=O)Nc2ccccn2)c1
93	-4%	CCN1CCN(S(=O)(=O)c2ccc(S(=O)(=O)NCC3CCCO3)cc2)CC1 (stereo not given)
94	5%	Cc1ccc(NC(=O)C2CC(=O)NC(Nc3cccc(C)c3)=N2)cc1 (stereo not given)
95	-10%	Cc1cc(C)n(C(=O)COc2ccc(Cl)cc2Cl)n1
96	-4%	CCOc1ccc(C(=O)C2CCN(C(=O)c3ccccc3C(=O)O)CC2)cc1
97	-14%	COc1ccc2[nH]c(=O)c(CN(Cc3nnnn3Cc3ccc(F)cc3)CC3CCCO3)cc2c1 (stereo not given)
98	-16%	COc1ccc(-c2c(C)[nH]n3c(=O)c(Cc4ccccc4)c(C)nc23)cc1
99	-9%	C=C(C)c1cccc(C(C)(C)NC(=O)N2CCN(C/C=C/c3ccccc3)CC2)c1
100	-9%	O=C(O)C1C2C=CC(C2)C1C(=O)NCCc1cccc(Cl)c1 (stereo not given)

Exported with each value named: entries from further up.
96	CCOc1ccc(C(=O)C2CCN(C(=O)c3ccccc3C(=O)O)CC2)cc1
  HPGD inh = -4%

97	COc1ccc2[nH]c(=O)c(CN(Cc3nnnn3Cc3ccc(F)cc3)CC3CCCO3)cc2c1 (stereo not given)
  HPGD inh = -14%

98	COc1ccc(-c2c(C)[nH]n3c(=O)c(Cc4ccccc4)c(C)nc23)cc1
  HPGD inh = -16%

99	C=C(C)c1cccc(C(C)(C)NC(=O)N2CCN(C/C=C/c3ccccc3)CC2)c1
  HPGD inh = -9%

Later entries:
nr	HPGD inh	Molecule
101	?	CC(C)(C)OC(=O)N1CCC(c2c(C(=O)O)cnn2-c2ccc(Cl)cc2)CC1
102	-5%	CCCSc1nnc(-c2ccccc2N)c(=O)[nH]1
103	0%	Cc1ccc(C)c(N(CC(=O)NCc2ccco2)C(=O)CCC(=O)Nc2ccccn2)c1
104	?	CCOc1ccc(-c2nnc(-c3ccncc3)o2)cc1
105	-8%	CCCN1CCC(N2CCN(c3ccccc3OC)CC2)CC1
106	-21%	COC(=O)c1ccc2c(c1)S(=O)(=O)NC(=NCCCN1CCOCC1)S2
107	-9%	N#CC1=C(N)N(c2ccccc2)C2=C(C(=O)CCC2)C1c1cccs1 (stereo not given)
108	-24%	Cc1ncc(CO)c2cc(S(=O)(=O)c3ccc(F)cc3)c(=O)oc12
109	7.1µM*	COc1ccccc1/C=C/C=N/n1c(C2CCCCC2)n[nH]c1=S
110	-12%	COC(=O)c1ccccc1NS(=O)(=O)c1ccc2[nH]c(=O)[nH]c2c1
111	-9%	Cc1ccc(NC(=O)CCC(=O)n2nc(C)cc2C)c(C)c1
112	-4%	O=C(NC1CCS(=O)(=O)C1)Oc1ccccc1 (stereo not given)
113	-2%	CCC(CCC(C)C1CCC2C3CCC4CC(O)CC[C@@]4(C)C3CC[C@@]12C)C(C)C (stereo not given in full)
114	-17%	COC(=O)c1ccc(C(=O)Nc2ccc(N)cc2N)cc1
115	-10%	O=[N+]([O-])c1cnccc1Nc1cccc(F)c1
116	-9%	Cc1ncc([N+](=O)[O-])n1CCOC(=O)c1ccc(Cl)cc1Cl
117	-16%	CC(C)Cc1cc(C(=O)Nc2ccc3c(c2)OCO3)no1
118	-2%	COC(=O)C1(CO)NC(c2cccs2)C2C(=O)N(c3ccccc3)C(=O)C21 (stereo not given)
119	-12%	COc1cc(C(=O)NC2(C(F)(F)F)NC(=O)N(CCCc3ccccc3)C2=O)cc(OC)c1OC (stereo not given)
120	-20%	O=C(N/N=C/c1ccco1)/C(=C/c1cccc([N+](=O)[O-])c1)NC(=O)c1ccccc1
121	-6%	Cc1ccc(C)c(OCC(=O)N/N=C/c2ccsc2)c1
122	-8%	COc1ccc(NC(=O)c2cccs2)cc1OC
123	-1%	CC(C)C(=O)Nc1ccccc1N1CCN(C(=O)c2ccccc2)CC1
124	-6%	CCOc1ccc(/C=C(\C#N)C(=O)Nc2cccnc2)cc1
125	-3%	CC1(CCc2ccc(O)cc2)NC(=O)NC1=O (stereo not given)
126	28µM*	CCOC(=O)C1CCN(C(=S)Nc2ccc(S(N)(=O)=O)cc2)CC1
127	-14%	CCN(CC)S(=O)(=O)c1ccc(NS(=O)(=O)c2ccc(F)cc2)cc1
128	18µM*	O=c1cc(-c2ccccc2Cl)oc2cc(O)cc(O)c12
